Assay outcomes from PubChem.
RanGTP-Imp inh = inhibitors of RanGTP-importin-beta interaction, primary screen, biochemical, FRET, CFP-Ran, YFP-importin-beta, homogeneous; cell-free CFP-Ran/YFP-importin-beta FRET ratio; inhibition, % (test concentration not listed); 300,000 tested, 1.1% active; AID 2216;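 active = most replicates above 15%; inconclusive = exactly half above 15%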;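 also: 0% = DMSO wells and 100% = Ran loaded with GDP instead of GTP; wells of about 40 µL received 100 nL stock; the first replicate is given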
Ecoli rRNA inh = inhibitors of bacterial rRNA selective over humanized ribosomes; GFP signal change (wild-type ribosome), % (concentration not given with the values); E. coli WT GFP vs humanized-ribosome RFP mutants, fluorescence, 24 h; hits give low values; DMSO median 0, no signal -100; 350,000 tested, 1.6% active; AID 720706;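 active = significant combined selectivity score with lowered wild-type GFP, culture density cut under 30%, mutant RFP and density less affected; inactive = any of these conditions unmet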; also: one replicate is shown; some compounds called inactive have numbers as strong as hits
FGF22 binding = FGF22 (human) thermal shift binding; Q9HCT0; recombinant FGF22 thermal shift, SYPRO orange fluorescence; percent of sucrose octasulfate shift, DMSO zero; calls only at 9.99 µM; 340,000 tested, 1.5% active;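 active = melting point raised past a set limit in the mean and every replicate; inconclusive = no clear call; three in four hits are not shown here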
Target sequence (Q9HCT0 whole entry, looked up): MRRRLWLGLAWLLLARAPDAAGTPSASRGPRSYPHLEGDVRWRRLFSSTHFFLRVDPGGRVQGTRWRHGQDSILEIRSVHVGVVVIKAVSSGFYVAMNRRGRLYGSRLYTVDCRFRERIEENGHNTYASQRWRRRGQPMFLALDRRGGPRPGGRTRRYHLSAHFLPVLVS
T cruzi inh = T. cruzi replication inhibition. T. cruzi beta-gal in NIH3T3, luminescence, 90 h. AID 1885. inhibition, % (test concentration not listed). 300,000 tested, 1.4% active;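 active = mean inhibition across valid replicates above about 55%, limit read from the data; inconclusive = mean below that limit but half or more replicates reach it; inactive = mean below it, under half of replicates reach it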;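 also: signal also drops with host cell toxicity which is not excluded here; 0% = plate median of DMSO wells and 100% = zero luminescence signal; higher percent means less beta-gal luminescence so fewer parasites; stock transfer was 50 nL into about 50 µL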
Beta cell apopt = beta cell apoptosis inhibition; INS-1E cytokine-induced death, ATP luminescence, 48 h; percent of positive-control rescue, neutral wells zero; protection from apoptosis, % (concentration not given with the values); 300,000 tested, 0.8% active;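 active = all replicates at 75% or more, or half of them and the mean; inconclusive = half reach 75% but not the mean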;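 also: 0% = cytokine-treated negative control wells and 100% = positive control rescue; higher means more ATP so stronger rescue from cytokine killing; wells of about 40 µL received 100 nL stock; the first replicate is given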
Calb FLC = affects C. albicans growth with fluconazole. C. albicans CaCi-2 (fluconazole-resistant clinical isolate) + fluconazole, Alamar Blue growth, 48 h. growth inhibition, % (test concentration not listed). 300,000 tested, 0.57% active;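 active = most replicates above 75%; inconclusive = exactly half above 75%; inactive = most below 75%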;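 also: all wells also contain fluconazole at 8 µg/ml as a sub-toxic cotreatment; 0% = median of DMSO wells and 100% = median of geldanamycin control wells; wells of about 8 µL received 7.5 nL stock; the first replicate is given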
MLL AF4-AF9 inh = inhibitors of human MLL-AF4/AF9 interaction; 350,000 tested, 0.47% active; P42568; AlphaScreen, biotin-AF4 peptide binding to FLAG-AF9; inhibition, % at 10 µM;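 active = every replicate reaching a set inhibition limit, whatever the replicate mean, cut at about 25% in these data; inconclusive = mean inhibition reaches that limit but some replicates miss it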;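 also: 0% = plate neutral control median and 100% = total signal loss; the record names both 10 and 1 µM as test concentration; the first replicate is given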
Target sequence (P42568 whole entry, looked up): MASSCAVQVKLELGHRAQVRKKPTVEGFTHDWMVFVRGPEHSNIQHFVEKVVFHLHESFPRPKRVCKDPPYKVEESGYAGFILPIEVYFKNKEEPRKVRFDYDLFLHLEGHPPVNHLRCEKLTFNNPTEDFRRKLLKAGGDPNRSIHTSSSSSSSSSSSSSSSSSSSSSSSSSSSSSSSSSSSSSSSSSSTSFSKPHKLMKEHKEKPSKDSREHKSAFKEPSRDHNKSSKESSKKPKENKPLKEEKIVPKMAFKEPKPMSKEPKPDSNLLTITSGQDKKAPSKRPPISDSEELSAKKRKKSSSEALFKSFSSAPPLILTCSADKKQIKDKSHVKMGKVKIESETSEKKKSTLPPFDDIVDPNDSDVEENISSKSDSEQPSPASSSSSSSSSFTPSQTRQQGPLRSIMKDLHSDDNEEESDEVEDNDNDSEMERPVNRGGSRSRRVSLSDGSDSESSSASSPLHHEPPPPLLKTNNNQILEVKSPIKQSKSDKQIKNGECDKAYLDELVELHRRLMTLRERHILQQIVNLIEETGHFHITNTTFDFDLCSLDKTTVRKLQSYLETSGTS
ALR inh = blocks human ALR sulfhydryl oxidase activity. purified ALR, DTT oxidation, H2O2 HRP-luminol luminescence. AID 485317. P55789. inhibition, % (concentration not given with the values). 290,000 tested, 3.8% active;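 active = mean and each replicate at 75% or more; inconclusive = only one of the two met; inactive = neither met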;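 also: stock transfer was 7.5 nL into about 7.5 µL; 0% = neutral wells and 100% = wells with inactivated enzyme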
Target sequence (P55789 whole entry, looked up): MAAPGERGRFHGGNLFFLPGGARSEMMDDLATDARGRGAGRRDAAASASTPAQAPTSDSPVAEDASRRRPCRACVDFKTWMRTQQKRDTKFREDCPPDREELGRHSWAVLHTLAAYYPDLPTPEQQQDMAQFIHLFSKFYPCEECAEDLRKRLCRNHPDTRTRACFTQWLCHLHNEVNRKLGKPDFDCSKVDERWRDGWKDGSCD
Ecoli rRNA inh OD600 = further read-out of Ecoli rRNA inh, marked with its call; OD600 change, %; measured here: OD600 growth;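 optical density of the mix in the first replicate; 0 = DMSO median and -100 = no signal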
Ecoli rRNA inh RFP = further read-out of Ecoli rRNA inh, marked with its call; RFP signal change, %; measured here: RFP humanized mutant strains;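 first replicate; 0 = DMSO median and -100 = no signal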
The depositor's hits bear a star; i = inactive; ? = inconclusive; nt = no result given.

SMILES	RanGTP-Imp inh	Ecoli rRNA inh	Ecoli rRNA inh OD600	Ecoli rRNA inh RFP	FGF22 binding	T cruzi inh	Beta cell apopt	Calb FLC	MLL AF4-AF9 inh	ALR inh
CCOc1ncccc1C(=O)OCC(=O)Nc1ccc(C)c(S(=O)(=O)N(C)C)c1	?	-31	-27	-0.1	i	-5	-6	-24	-1.4	0
CCN(C(=O)COC(=O)c1cccnc1Nc1cccc(C(F)(F)F)c1)C1CCS(=O)(=O)C1 (stereo not given)	5.6	nt	nt	nt	nt	2	1	-1	nt	-6
O=C(NC(=S)N1CCCCC1)C12CC3CC(CC(C3)C1)C2	-5.0	nt	nt	nt	nt	11	-16	5	nt	-3
Fc1cccc(Nc2c3c(nc4ccccc24)CCC3)c1	1.2	8	-33	1.0	i	25	12	-5	-1.7	2
O=C(CN1CCCC1)Nc1ccc([N+](=O)[O-])cc1	2.3	8	7	0.7	i	-6	-5	7	1.1	-11
CC(C)Oc1ccc(C(=O)NCc2cccnc2)cc1	6.0	nt	nt	nt	nt	-9	5	0	nt	-2
CCn1c(C)nc2cc(C(=O)N3N=C(CCOC)CC3(O)C(F)(F)F)ccc21 (stereo not given)	-2.1	6	6	1.1	i	-11	0	1	7.2	-5
CCOC(=O)CC(=O)CSC1=C(C#N)C(c2ccccc2OC)CC(=O)N1 (stereo not given)	6.9	nt	nt	nt	nt	-6	5	5	nt	?
O=C(COc1ccc2ccccc2c1)N1CCN(c2ccccc2)CC1	-2.6	4	9	-1.4	i	-4	2	7	-14	-2
COc1cc(OC)cc(C(=O)Nc2nc(CC(=O)NC(C)c3ccccc3)cs2)c1 (stereo not given)	-0.4	-26	-26	-0.1	i	-3	nt	-1	-0.5	nt
COc1ccc(OCCSc2n[nH]c(N)n2)cc1	-4.2	nt	nt	nt	nt	-4	7	-28	nt	-4
NS(=O)(=O)c1cccnc1Nc1cccc(C(F)(F)F)c1	6.0	nt	nt	nt	nt	-3	nt	-1	nt	2
Cc1ccc(NC(=O)CN2CCN(Cc3ccccc3)CC2)cc1	-4.4	9	14	1.5	i	13	0	2	1.8	-3
NC(=O)[C@H]1CC2(CC(c3cccc(NC(=O)COc4ccc(Cl)cc4)c3)=NO2)CN1C(=O)c1ccc(Cl)cc1 (stereo not given in full)	1.1	-21	-31	26	i	32	10	21	-0.7	-3
CC1CC(NC(=O)c2cnc3n(c2=O)CCS3)CC(C)(C)C1 (stereo not given)	4.2	0	10	-1.3	i	0	-2	4	-6.3	-17
CC(NC(=O)Cc1ccc(F)cc1)c1ccc(F)cc1 (stereo not given)	3.4	nt	nt	nt	i	-14	-7	-15	-0.3	-4
Cc1cccc(N2CCN(S(=O)(=O)c3ccc4c(c3)CCCN4C(=O)C3CCC3)CC2C)c1 (stereo not given)	-1.9	9	5	0.4	i	32	26	-10	0.6	-10
COc1ccccc1N1C(=NC(=O)COc2ccccc2)SC2CS(=O)(=O)CC21 (stereo not given)	-0.4	3	12	-0.7	i	-4	-4	-6	0.5	-4
CCCS(=O)(=O)N1CCCC(C(=O)NCCN2CCCCC2C)C1 (stereo not given)	0.9	nt	nt	nt	nt	3	-6	3	nt	2
CCOc1ccc(CCNC(=O)COC(=O)c2cccc(S(=O)(=O)N3CCCC3)c2)cc1OCC	2.0	1	1	0.0	i	-7	-8	-8	-13	-7
Cc1ccccc1CN1CCN(C(=O)c2cccc3ccccc23)CC1	2.1	-22*	-17*	-2.5*	i	11	-6	4	-2.1	-10
CCOC(=O)N1CCN(C(=O)c2nn(-c3ccc(C)cc3)c(=O)c3c2c2ccccc2n3C)CC1	-1.0	nt	nt	nt	nt	19	3	-4	nt	nt
O=C(Cn1cnc2cc([N+](=O)[O-])ccc2c1=O)NC1CCS(=O)(=O)C1 (stereo not given)	6.6	18	22	0.6	i	0	-6	-13	-1.5	-36
CC(=O)NC(CCS(C)(=O)=O)C(=O)Nc1cccc(C)c1C (stereo not given)	4.3	4	8	-3.8	i	0	-12	-5	3.4	-9
Cn1ccc(C(=O)OCC(=O)Nc2cccc(Cl)c2)n1	1.0	6	0	1.0	i	0	-8	-9	-8.5	-6
Cc1c(CN2CCCCC2)c(O)n(CCO)c(=O)c1C#N	-3.7	0	2	2.5	i	-14	-6	-1	-0.9	-36
CCC(=O)NN1CCN(c2ccncc2S(=O)(=O)N2CCCCC2)CC1	-1.6	19	15	0.4	i	-5	2	2	-3.5	-4
CN1C2=NCCN2C(=O)c2cc(Cl)ccc21	-0.8	3	1	-0.9	i	-4	-7	-8	-1.8	5
CCC(=O)Nc1nc2cc(OC)ccc2s1	-3.0	nt	nt	nt	nt	26	1	12	nt	-7
O=[N+]([O-])c1ccc(COc2ccc(Br)cc2CN2CCOCC2)cc1	-1.7	9	1	0.1	i	17	0	39	8.9	nt
CC(C)C(c1nnnn1CCc1ccccc1)N1CCC(C(N)=O)CC1 (stereo not given)	-2.5	17	14	-2.8	nt	-16	nt	-3	1.0	-20
O=C(Nc1ccc(N2CCOCC2)nc1)c1ccc(F)cc1	-1.9	nt	nt	nt	nt	-14	nt	-3	nt	-4
Cc1nc(C(=O)NCCCO)cc2c1[nH]c1ccccc12	-2.8	-5	-3	0.3	i	-6	1	-5	2.9	4
Cc1cccc(/C=N\N=C\c2cccc(C)c2)c1	1.6	13	15	2.0	i	-2	0	1	1.4	6
O=C(COc1ccc(Br)cc1)NCc1cn2ccccc2n1	0.5	-18	-14	1.1	i	-6	0	0	-6.6	-7
Cc1ccc(OCC(=O)NCCCNC(=O)COc2ccc(C)cc2)cc1	1.8	0	-4	-1.6	i	-1	nt	-1	-0.7	nt
O=C(CO/N=C/c1ccc2c(c1)OCO2)Nc1cccc(Br)c1	5.7	nt	nt	nt	nt	-9	0	-48	nt	-1
CC(C)(Oc1ccc(Cl)cc1)C(=O)Nc1ncccn1	-2.1	nt	nt	nt	nt	-2	-1	-19	nt	-6
COC(=O)c1ccccc1NC(=O)N1CCN(c2ccccc2)CC1	-2.0	-22	-22	-2.2	i	17	-4	2	0.5	35
CC(=O)c1cccc(N=C2C(=O)Nc3ccccc32)c1	1.8	nt	nt	nt	nt	5	0	-26	nt	-7
CC(CCN1C(N(C)C)=NC[C@@H]1C)c1ccccc1 (stereo not given in full)	nt	6	1	-1.9	i	nt	0	nt	0.8	-2
O=C(Nc1nc2cc3c(cc2s1)OCO3)C1=COCCO1	1.7	4	6	-0.9	i	-2	16	-1	5.6	-17
O=C(Nc1ccc2c(c1)OCO2)c1ccc(N2CCCC2)c([N+](=O)[O-])c1	-1.7	nt	nt	nt	nt	-3	-2	13	nt	nt
N#C/C(=C\C1=C(N2CCOCC2)C(=C\c2ccccc2)/CC1)C(=O)Nc1ccccc1F	-3.9	8	0	55	i	58*	nt	3	7.7	nt
O=C(Cn1c(=O)oc2ccccc21)Nc1ccc(Cl)cc1Cl	-0.3	3	0	2.3	i	-4	2	-2	-1.1	1
COc1ccccc1C(=O)NC(=O)CSc1nc(C)cs1	2.7	8	5	-0.1	i	-2	0	-8	-0.3	8
CC1CCC2(CC1)NC(=O)N(CC(=O)NCCc1ccccc1)C2=O (stereo not given)	nt	3	-5	-8.5	i	nt	4	nt	-3.5	-2
C=CCn1c(C(c2ccccc2)c2ccccc2)n[nH]c1=S	2.2	nt	nt	nt	nt	-8	0	9	nt	nt
COc1ccc(CCNC(=O)CCn2c(=O)oc3ccccc32)cc1OC	?	-3	7	-6.9	i	-12	-1	-2	-10	-13
CC(=O)c1ccc(NC(=O)CS(=O)(=O)c2cn(CC(=O)N3CCOCC3)c3ccccc23)cc1	-5.7	8	7	-0.6	i	-6	-2	-1	-1.8	4
CC(C)(C)c1csc(NC(=O)Cc2cccs2)n1	2.3	-23*	-16*	-0.4*	i	-6	2	2	-2.0	-14
CN(Cc1ccccc1)C(=O)C1CCCN(c2ncnc3c2nc2n3CCCCC2)C1 (stereo not given)	5.0	-31*	-19*	-2.8*	i	8	2	10	0.1	-7
COc1ccccc1C(=O)Nc1ccc(C(=O)O)cc1	1.0	nt	nt	nt	nt	9	1	-2	nt	2
Cc1ccc(Cl)cc1NC1=C/C(=N\S(=O)(=O)c2cccs2)c2ccccc2C1=O	11	19	-12	1.5	i	61*	111*	42	6.0	-27
COc1ccccc1N1CCN(C(=O)C2CCN(S(=O)(=O)c3ccc4c(c3)CC(C)N4C(=O)C3CC3)CC2)CC1 (stereo not given)	0.0	0	-5	-1.0	i	6	5	9	4.6	-4
C/C(CC(C)C)=N/Nc1ccc([N+](=O)[O-])cc1[N+](=O)[O-]	5.1	-17	-9	-4.9	i	-11	11	-38	12	-10
COc1ccc(NC(=O)c2cc(S(=O)(=O)N3CCc4ccccc43)cn2C)cc1OC	-1.9	2	1	0.8	i	0	-7	-10	-14	-4
OCCCNc1nc(-c2ccccc2)nc2c1oc1ccccc12	1.2	-17	-32	1.1	i	4	-5	8	-2.4	1
CCOc1cc(/C=N\Nc2nc(Nc3ccccc3)nc(N3CCOCC3)n2)ccc1OC(=O)c1ccco1	3.6	nt	nt	nt	nt	46	6	40	nt	-24
CCn1ncc(CN2CCCC(C(=O)c3cccc(OC(C)C)c3)C2)c1C (stereo not given)	1.9	nt	nt	nt	i	65*	-7	-10	0.2	nt

Brought forward from above: two entries, followed by the next part.
SMILES	RanGTP-Imp inh	Ecoli rRNA inh	Ecoli rRNA inh OD600	Ecoli rRNA inh RFP	FGF22 binding	T cruzi inh	Beta cell apopt	Calb FLC	MLL AF4-AF9 inh	ALR inh
CCOc1cc(/C=N\Nc2nc(Nc3ccccc3)nc(N3CCOCC3)n2)ccc1OC(=O)c1ccco1	3.6	nt	nt	nt	nt	46	6	40	nt	-24
CCn1ncc(CN2CCCC(C(=O)c3cccc(OC(C)C)c3)C2)c1C (stereo not given)	1.9	nt	nt	nt	i	65*	-7	-10	0.2	nt
CCc1ccccc1NC(=O)CN(C)C(=O)c1cccc(S(=O)(=O)N2CCCCCC2)c1	nt	nt	nt	nt	i	nt	0	nt	1.5	-1
O=C(Nc1ccc2c(c1)OCO2)c1c(Cl)nc2sccn12	-0.4	nt	nt	nt	nt	3	-1	-14	nt	-3
CCCCNC(=O)c1onc(CSc2cccc(Cl)c2)c1C(=O)O	0.4	-20	-12	-4.1	i	0	-14	-10	-1.8	59
O=S(Cc1ccccc1)CC(O)(c1ccccc1)c1ccccc1 (stereo not given)	6.4	nt	nt	nt	nt	7	-3	12	nt	nt
O=C(CN1CCN(Cc2ccccc2)CC1)Nc1ccccc1	1.7	8	3	-2.7	i	6	nt	6	-1.8	nt
Cc1ccccc1OCC(=O)Nc1sc2c(c1C#N)CC(C)(C)NC2(C)C	4.8	-4	-23	0.8	i	20	2	-7	0.9	-4
O=C(CCNC(=O)c1ccccc1Cl)NCCc1ccc(Cl)cc1	?	8	8	3.6	i	-5	3	1	-0.6	-5

The list is partial; rates above refer to the full screens.
